Screening data from PubChem BioAssay.
A1 apoptosis 2 – A1 inhibitors via caspase activation, primary screen, cell-based, luminescence, HTS, two replicates; MEF A1-2A-BIM cells, caspase-Glo luminescence, 3 h; percent of clofoctol response, DMSO zero; caspase activation, % (test concentration not listed); 24,000 tested, under 10 active; AID 2465, 2010; in the data active means caspase activation above about 5.9%;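 further: wells of about 30 µL received 50 nL stock; the first replicate is given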
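System: mouse embryonic fibroblasts co-expressing A1 and BIM (A1-2A-BIM), primed for A1 dependence; amount: 2500 cells/well; doses: 50 nL pinned compound; schedule: cells settled overnight, compound exposure 3 h at 37 °C, 5% CO2; detection: Caspase-Glo 3/7 luminescence, 1 h at room temperature; read-out: Caspase-3/7 activation, seen as rise in luminescence signal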
An asterisk follows results filed as active. This is a subset; rates above refer to the full screens.

SMILES	A1 apoptosis 2
Cc1cc(C(=O)Nc2cccc3c2O[C@@H](CN(C)Cc2ccccc2)[C@@H](C)CN([C@@H](C)CO)C3=O)n(C)n1	0.6
COc1ccc(NC(=O)Nc2ccc3c(c2)C(=O)N([C@@H](C)CO)C[C@@H](C)[C@@H](CN(C)C(=O)Nc2ccccc2)OCCCC[C@H](C)O3)cc1	1.1
Cc1noc(C)c1NC(=O)N(C)C[C@@H]1Oc2c(NC(=O)c3ccncc3)cccc2C(=O)N([C@H](C)CO)C[C@H]1C	-0.8
C[C@@H]1CCCCO[C@@H](CN(C)C(=O)NC2CCCCC2)[C@@H](C)CN([C@@H](C)CO)C(=O)c2cc(NC(=O)CCC(F)(F)F)ccc2O1	0.1
C[C@H]1CN([C@@H](C)CO)C(=O)CCCn2cc(nn2)CO[C@@H]1CN(C)C(=O)Nc1ccccc1C(F)(F)F	0.8
C[C@@H]1CN([C@H](C)CO)C(=O)Cc2cc(NC(=O)Nc3cccc4ccccc34)ccc2O[C@H]1CN(C)Cc1ccc(C(F)(F)F)cc1	0.2
C[C@H](CO)N1C[C@H](C)[C@H](CN(C)C(=O)Nc2cccc3ccccc23)Oc2ccc(NC(=O)CCCCCC(=O)Nc3ccccc3N)cc2CC1=O	0.3
Cc1ccc(S(=O)(=O)Nc2ccc3c(c2)C(=O)N([C@H](C)CO)C[C@@H](C)[C@@H](CN(C)C(=O)Cc2ccccc2)OCCCC[C@H](C)O3)cc1	0.8
COc1ccc(C#Cc2cnc3c(c2)C(=O)N([C@H](C)CO)C[C@H](C)[C@H](CN(C)C(=O)NC(C)C)O3)cc1OC	-0.7
COc1ccc(NC(=O)N(C)C[C@@H]2OCCCC[C@@H](C)Oc3ccc(NS(=O)(=O)c4ccc(C)cc4)cc3C(=O)N([C@H](C)CO)C[C@H]2C)cc1	-1.2
Cc1noc(C)c1S(=O)(=O)N(C)C[C@@H]1Oc2c(NS(C)(=O)=O)cccc2C(=O)N([C@@H](C)CO)C[C@H]1C	0.1
COc1ccc(S(=O)(=O)N(C)C[C@H]2OCCCC[C@H](C)Oc3ccc(NC(=O)C4CCCCC4)cc3C(=O)N([C@H](C)CO)C[C@H]2C)cc1	0.0
C[C@@H]1CCCCO[C@H](CN(C)C(=O)Nc2ccc3c(c2)OCO3)[C@H](C)CN([C@@H](C)CO)C(=O)c2cc(NC(=O)c3ccncc3)ccc2O1	-0.9
C[C@@H]1CN([C@H](C)CO)C(=O)c2cc(NS(C)(=O)=O)ccc2O[C@@H](C)CCCCO[C@@H]1CN(C)S(=O)(=O)c1ccc(Cl)cc1	0.0
C[C@@H]1CN([C@@H](C)CO)C(=O)c2cc(NC(=O)Cc3ccccc3)ccc2O[C@@H](C)CCCCO[C@H]1CN(C)C(=O)c1ccncc1	0.2
Cc1noc(C)c1NC(=O)N(C)C[C@H]1OCCCC[C@H](C)Oc2ccc(NS(=O)(=O)c3ccc(Cl)cc3)cc2C(=O)N([C@@H](C)CO)C[C@H]1C	0.5
COc1ccc(S(=O)(=O)N(C)C[C@@H]2Oc3c(NC(=O)c4nc5ccccc5s4)cccc3C(=O)N([C@@H](C)CO)C[C@H]2C)cc1	1.5
COc1ccc(NC(=O)N(C)C[C@H]2Oc3c(NS(=O)(=O)c4ccccc4)cccc3C(=O)N([C@H](C)CO)C[C@H]2C)cc1	-0.6
COc1ccc(S(=O)(=O)Nc2cccc3c2O[C@@H](CN(C)S(=O)(=O)c2ccc(Cl)cc2)[C@H](C)CN([C@H](C)CO)C3=O)cc1	1.5
C[C@@H]1CN([C@@H](C)CO)C(=O)c2cccc(NC(=O)c3ccncc3)c2O[C@@H]1CN(C)S(=O)(=O)c1cccs1	-0.5
C[C@@H]1CN([C@H](C)CO)C(=O)c2cccc(NC(=O)C3CCOCC3)c2O[C@H]1CN(C)S(=O)(=O)c1cccs1	0.0
C[C@H]1CN([C@@H](C)CO)C(=O)Cc2cc(NC(=O)Cn3cnnn3)ccc2O[C@H]1CN(C)Cc1ccc(C(=O)O)cc1	-1.1
C[C@@H]1CN([C@@H](C)CO)C(=O)c2cc(NC(=O)Cc3ccccc3)ccc2O[C@@H](C)CCCCO[C@@H]1CN(C)C(=O)Cc1ccccc1	-0.9
CCCCNC(=O)C(COCc1ccccc1)OC(=O)c1ccccc1 (configuration not stated)	-0.2
COc1ccc(CN(C)C[C@@H]2OCCCC[C@H](C)Oc3ccc(NC(=O)Cc4ccccc4)cc3C(=O)N([C@H](C)CO)C[C@H]2C)cc1	0.5

Shown in CSV form: 4 of the compounds above
molecule,A1 apoptosis 2
Cc1noc(C)c1NC(=O)N(C)C[C@H]1OCCCC[C@H](C)Oc2ccc(NS(=O)(=O)c3ccc(Cl)cc3)cc2C(=O)N([C@@H](C)CO)C[C@H]1C,0.5
COc1ccc(S(=O)(=O)N(C)C[C@H]2OCCCC[C@H](C)Oc3ccc(NC(=O)C4CCCCC4)cc3C(=O)N([C@H](C)CO)C[C@H]2C)cc1,0.0
C[C@@H]1CN([C@H](C)CO)C(=O)c2cc(NS(C)(=O)=O)ccc2O[C@@H](C)CCCCO[C@@H]1CN(C)S(=O)(=O)c1ccc(Cl)cc1,0.0
Cc1ccc(S(=O)(=O)Nc2ccc3c(c2)C(=O)N([C@H](C)CO)C[C@@H](C)[C@@H](CN(C)C(=O)Cc2ccccc2)OCCCC[C@H](C)O3)cc1,0.8

More records follow:
SMILES	A1 apoptosis 2
C[C@@H]1CN([C@@H](C)CO)C(=O)c2cc(NS(=O)(=O)c3cn(C)cn3)ccc2O[C@@H]1CN(C)CC1CCCCC1	-0.2
CCCN(C)C[C@H]1OCCCC[C@@H](C)Oc2ccc(NS(=O)(=O)c3ccc(F)cc3)cc2C(=O)N([C@@H](C)CO)C[C@H]1C	-0.7
C[C@@H]1CN([C@H](C)CO)C(=O)Cc2cc(NS(=O)(=O)c3ccc(Cl)cc3)ccc2O[C@H]1CN(C)CC1CCCCC1	0.2
COc1ccc(CN(C)C[C@H]2Oc3c(NS(=O)(=O)c4cccs4)cccc3C(=O)N([C@@H](C)CO)C[C@H]2C)cc1	-0.5
C[C@H](CO)N1C[C@H](C)[C@H](CN(C)C(=O)Nc2ccccc2)Oc2ccc(NS(C)(=O)=O)cc2CC1=O	-0.9
Cc1noc(C)c1S(=O)(=O)Nc1ccc2c(c1)C(=O)N([C@H](C)CO)C[C@@H](C)[C@@H](CN(C)C(=O)CCC(F)(F)F)OCCCC[C@H](C)O2	-2.8
CC(C)NC(=O)N(C)C[C@@H]1Oc2ncc(C#CC(C)(C)O)cc2C(=O)N([C@H](C)CO)C[C@@H]1C	1.0
COc1ccc(NC(=O)Nc2cccc3c2O[C@H](CN(C)C(=O)Nc2cccc4ccccc24)[C@H](C)CN([C@@H](C)CO)C3=O)cc1	0.4
O=C(CCCCCC(=O)N/N=C/c1ccccn1)NO	0.0
C[C@@H]1CN([C@H](C)CO)C(=O)c2cccc(NC(=O)c3ccc(-c4nccs4)cc3)c2O[C@H]1CN(C)Cc1ccc(C(=O)O)cc1	0.0
C[C@H]1CN([C@@H](C)CO)C(=O)c2cc(NC(=O)CCCN(C)C)ccc2O[C@H]1CN(C)C(=O)Nc1ccc(F)cc1	-0.2
CNC[C@H]1Oc2ccc(NC(=O)CCCN(C)C)cc2C(=O)N([C@H](C)CO)C[C@@H]1C	-0.5
Cc1noc(C)c1NC(=O)Nc1ccc2c(c1)C(=O)N([C@H](C)CO)C[C@H](C)[C@@H](CN(C)C(=O)CCCN(C)C)OCCCC[C@@H](C)O2	-1.1
CC(C)NC(=O)Nc1ccc2c(c1)C(=O)N([C@H](C)CO)C[C@@H](C)[C@H](CN(C)Cc1ccc3c(c1)OCO3)O2	0.1
C[C@@H]1CN([C@@H](C)CO)C(=O)c2cc(NC(=O)CCCN(C)C)ccc2O[C@@H](C)CCCCO[C@@H]1CN(C)S(C)(=O)=O	-0.1
C[C@H]1CN([C@@H](C)CO)C(=O)Cc2cc(NC(=O)Nc3ccc(C(F)(F)F)cc3)ccc2O[C@H]1CN(C)C(=O)Nc1ccccc1	-1.5
C[C@@H]1CCCCO[C@@H](CN(C)S(=O)(=O)c2cccs2)[C@H](C)CN([C@@H](C)CO)C(=O)c2cc(N(C)C)ccc2O1	0.5
C[C@@H]1CCCCO[C@H](CN(C)C(=O)Cc2ccccc2)[C@@H](C)CN([C@H](C)CO)C(=O)c2cc(NC(=O)NC3CCCCC3)ccc2O1	0.5
C[C@H]1CCCCO[C@@H](CN(C)C)[C@@H](C)CN([C@@H](C)CO)C(=O)c2cc(NS(=O)(=O)c3cccs3)ccc2O1	-0.1
Cc1cc(C(=O)Nc2cccc3c2O[C@@H](CN(C)S(=O)(=O)c2cn(C)cn2)[C@H](C)CN([C@@H](C)CO)C3=O)n(C)n1	0.3
C[C@@H]1CCCCO[C@@H](CN(C)S(=O)(=O)c2cccs2)[C@H](C)CN([C@H](C)CO)C(=O)c2cc(NS(=O)(=O)c3cccs3)ccc2O1	-0.5
Cc1noc(C)c1S(=O)(=O)Nc1ccc2c(c1)C(=O)N([C@@H](C)CO)C[C@@H](C)[C@H](CN(C)C(=O)Nc1cccc3ccccc13)O2	0.4
O=C(C1=C[C@@H](c2csc3ccccc23)C[C@@H](OCCCCO)O1)N1CCCCCCC1	0.3
Cc1noc(C)c1S(=O)(=O)Nc1ccc2c(c1)CC(=O)N([C@H](C)CO)C[C@@H](C)[C@@H](CN(C)Cc1ccc(Oc3ccccc3)cc1)O2	-0.2
Cc1noc(C)c1S(=O)(=O)N(C)C[C@H]1Oc2ccc(NS(=O)(=O)c3cccs3)cc2C(=O)N([C@H](C)CO)C[C@H]1C	0.1

Quoted at random: three records from the list
SMILES	A1 apoptosis 2
CC(C)NC(=O)N(C)C[C@@H]1Oc2ncc(C#CC(C)(C)O)cc2C(=O)N([C@H](C)CO)C[C@@H]1C	1.0
O=C(CCCCCC(=O)N/N=C/c1ccccn1)NO	0.0
Cc1noc(C)c1NC(=O)Nc1ccc2c(c1)C(=O)N([C@H](C)CO)C[C@H](C)[C@@H](CN(C)C(=O)CCCN(C)C)OCCCC[C@@H](C)O2	-1.1

(listing goes on)
SMILES	A1 apoptosis 2
C[C@@H]1CCCCO[C@H](CN(C)S(=O)(=O)c2ccc(Cl)cc2)[C@@H](C)CN([C@@H](C)CO)C(=O)c2cc(NC(=O)c3ccncc3)ccc2O1	0.9
COc1ccc(NC(=O)Nc2ccc3c(c2)CC(=O)N([C@@H](C)CO)C[C@H](C)[C@@H](CN(C)C(=O)Nc2ccc(OC)cc2)O3)cc1	0.1
C[C@H](CO)N1C[C@H](C)[C@@H](CN(C)C(=O)c2ccccc2)OCCCC[C@H](C)Oc2ccc(NC(=O)CCC(F)(F)F)cc2C1=O	-0.6
C[C@@H]1CN([C@H](C)CO)C(=O)Cc2cc(NC(=O)C3CC3)ccc2O[C@H]1CN(C)C	-0.6
C[C@@H]1CN([C@@H](C)CO)C(=O)c2cc(NC(=O)c3ccccc3)ccc2O[C@@H](C)CCCCO[C@H]1CN(C)C(=O)C1CCCCC1	1.9
C[C@H]1CN([C@@H](C)CO)C(=O)c2cccc(NS(=O)(=O)c3cccs3)c2O[C@@H]1CN(C)C	-0.3
C[C@H](CO)N1C[C@H](C)[C@H](CN(C)Cc2ccc(F)cc2)Oc2ncc(C#CCN(C)C)cc2C1=O	1.2
COc1ccc(S(=O)(=O)Nc2ccc3c(c2)C(=O)N([C@@H](C)CO)C[C@@H](C)[C@@H](CN(C)S(=O)(=O)c2ccc(F)cc2)OCCCC[C@@H](C)O3)cc1	1.0
C[C@H]1CN([C@@H](C)CO)C(=O)c2cccc(NC(=O)Nc3ccccc3)c2O[C@@H]1CN(C)S(=O)(=O)c1ccc(Cl)cc1	-1.5
C[C@H](CO)N1C[C@H](C)[C@H](CN(C)Cc2ccccc2)OCCCC[C@H](C)Oc2ccc(NC(=O)CCC(F)(F)F)cc2C1=O	0.7
COc1ccc(S(=O)(=O)Nc2ccc3c(c2)C(=O)N([C@H](C)CO)C[C@@H](C)[C@H](CN(C)S(C)(=O)=O)O3)cc1	-1.1
C[C@H]1CN([C@@H](C)CO)C(=O)c2cccc(NS(=O)(=O)c3cccs3)c2O[C@H]1CN(C)Cc1ccc(C(=O)Nc2ccccc2N)cc1	-0.5
C[C@@H]1CN([C@@H](C)CO)C(=O)CCCn2cc(nn2)CO[C@H]1CN(C)C(=O)Nc1ccccc1C(F)(F)F	0.9
C[C@H]1CN([C@@H](C)CO)C(=O)c2cccc(NC(=O)Nc3cccc4ccccc34)c2O[C@H]1CN(C)Cc1ccccc1	0.0
C[C@@H]1CN([C@@H](C)CO)C(=O)c2cccc(N(C)C)c2O[C@H]1CN(C)C(=O)NC1CCCCC1	-0.2
C[C@H](CO)N1C[C@H](C)[C@@H](CN(C)S(=O)(=O)c2ccc(Cl)cc2)OCCCC[C@H](C)Oc2ccc(NC(=O)c3ccncc3)cc2C1=O	-1.4
CNC[C@@H]1Oc2ccc(NS(=O)(=O)c3ccc(C)cc3)cc2C(=O)N([C@@H](C)CO)C[C@H]1C	-0.4
Cc1noc(C)c1NC(=O)N(C)C[C@@H]1Oc2ccc(NC(=O)CCCCCC(=O)Nc3ccccc3N)cc2CC(=O)N([C@@H](C)CO)C[C@@H]1C	1.0
C[C@@H]1CN([C@H](C)CO)C(=O)Cc2cc(NC(=O)Cn3cnnn3)ccc2O[C@H]1CN(C)Cc1ccncc1	-0.7
C[C@H](CO)N1C[C@H](C)[C@@H](CN(C)Cc2ccc(C(=O)Nc3ccccc3N)cc2)Oc2ccc(NC(=O)Cc3ccccc3)cc2C1=O	-0.9

Look-ups from the list:
`C[C@@H]1CN([C@H](C)CO)C(=O)Cc2cc(NC(=O)C3CC3)ccc2O[C@H]1CN(C)C` | A1 apoptosis 2: -0.6
`COc1ccc(NC(=O)Nc2ccc3c(c2)CC(=O)N([C@@H](C)CO)C[C@H](C)[C@@H](CN(C)C(=O)Nc2ccc(OC)cc2)O3)cc1` | A1 apoptosis 2: 0.1
